From PubChem BioAssay
Autofluor counter = counter-screen for toxin protease inhibitors: compound fluorescence. compound autofluorescence counterscreen, microsphere flow cytometry; active compounds read high. fluorescence intensity (concentration not given with the values). 360,000 compounds, 3.1% hits. AID 624483;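 active = at least 3 SD above the mean of all compounds, about 16000 in these data; inconclusive = too few beads counted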;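 also: 100 nL of 1 mM stock went into each well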
RN4220 kill = growth inhibition of S. aureus RN4220, primary screen, OD600 | inhibition, % (concentration not given with the values) | 16 h | 330,000 compounds, 0.33% hits;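 active = z-score of -3 or lower and OD600 up to 0.18 on both plates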;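 also: plate controls were untreated cells for no effect and reference antibiotic for full effect; stock transfer was 100 nL into about 80 µL; one replicate is shown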
PrP UTR inh = inhibition of PrP 5' UTR reporter expression. cell-based PrP 5' UTR mRNA reporter, plate reader. 340,000 compounds, 0.35% hits. inhibition, % (test concentration not listed). AID 488862, 2010;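 active = every replicate at 50% or more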;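 also: 0 = median of the neutral control wells; tested in H4 reporter cells; numbers are from one replicate; inactives centre near -14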
Mtb hypoxia rep = PubChem AID 1159583; M. tuberculosis hypoxia-regulated fluorescent reporter, fluorescence; fluorescence inhibition, % (no concentration beside the values); 300,000 compounds, 0.1% hits;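 active = 35 to 45% if threefold the growth effect, above 45% if 1.5-fold the growth effect; inactive = the rest, general growth blockers included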;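 also: wells of about 50 µL received 100 nL stock; 0% = vehicle wells and 100% = reference inhibitor wells; whole bacteria with a GFP reporter of the hypoxia response; strong numbers were not always called active; many hits fall short of the cut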
Sa ugtP lethal = growth inhibition of ugtP-null S. aureus, primary screen, RN4220 ugtP deletion, OD600; 16 h; some inactives read as strong as hits; growth inhibition, % (no concentration beside the values); 330,000 compounds, 0.54% hits;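 active = z-score under -3 and OD600 up to 0.15 on both plates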;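 also: plate controls were untreated wells for no effect and antibiotic for full effect; wells of about 80 µL received 100 nL stock; the first replicate is given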
BJeLR lethal = MLPCN primary cell-based screen for lethality selective to Ras in HRASV12 cells; BJeLR (HRASV12) viability, CellTiter-Glo ATP luminescence, 48 h; reference of the scale not given here; inhibition, % (concentration not given with the values); 300,000 compounds, 0.17% hits; AID 1554, 2009;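 active = replicate mean above 50%; inconclusive = above 50% but judged a plate artefact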;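 also: 50 nL library stock added to about 25 µL; numbers are from one replicate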
Mtb hypoxia rep growth = recorded beside Mtb hypoxia rep, whose call it bears; growth inhibition, %; measured here: M. tuberculosis growth (absorbance);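 0% = vehicle and 100% = reference antibiotic; read after six days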
Active calls of the source: *; ? = inconclusive; nt = not tested or not shown.

SMILES	Autofluor counter	RN4220 kill	PrP UTR inh	Mtb hypoxia rep	Mtb hypoxia rep growth	Sa ugtP lethal	BJeLR lethal
S=C(NCCc1ccccn1)NC1CC2CCC1C2 (stereo unspecified)	6031	1.9	-31	0	-14	10	0
Cc1cc(Cl)c2oc(C(=O)NCCC3CCCCO3)c(C)c2c1 (stereo unspecified)	?	nt	-37	nt	nt	nt	-10
CCc1cc(=O)oc2c3c(cc(OCC(=O)NCc4ccco4)c12)OC(C)(C)CC3	6053	3.7	1	nt	nt	2	14
CCCCN(c1ccccc1)S(=O)(=O)c1cccc(C(=O)O)c1	4443	9.2	-13	4	5	9	-1
O=c1c2cc(NC(=S)NC3CCN(Cc4ccccc4)CC3)ccc2nc2n1CCCCC2	4560	-5.7	-21	-2	4	-4	nt
O=S(=O)(N1CCOCC1)n1cnc2ccccc21	8743	3.6	nt	-3	5	1	4
O=C(NCCN1C(=O)S/C(=C\c2ccc(F)cc2)C1=O)C1CCN(S(=O)(=O)c2cccs2)CC1	10901	4.3	-47	17	6	-2	-2
O=C(/C=N/O)NCc1cccnc1	12687	nt	-26	nt	nt	nt	10
Cc1ccc2cc(CN(CCCN3CCOCC3)C(=O)NC3CCCCC3)c(=O)[nH]c2c1C	6409	5.1	-5	6	12	9	3
Cc1ccc(NC(=O)CSc2nnc(C)n2C2CC2)cc1S(=O)(=O)N1CCOCC1	?	4.6	nt	0	11	1	nt
COc1ccc(CCNC(=O)c2cc(C)oc2C)cc1OC	3694	4.3	-1	-1	11	4	-4
Cc1cc(C=NN2CCN(C)CC2)c(C)n1-c1ccccc1F	nt	-0.6	nt	-8	0	8	nt
c1ccc(-c2ccc3c(c2)NCCN3)cc1	3280	3.5	-83	0	-7	-14	-23
O=C(O)CCn1cc(C=C2C(=O)NC(=S)NC2=O)c(-c2cc3ccccc3oc2=O)n1	4554	2.4	-5	-1	1	3	0
CCCCCCn1c(CN2CCC(C)CC2)nc2c1c(=O)n(C)c(=O)n2C	8448	5.6	-36	-7	9	3	2
CCOC(=O)N1CCN(C(=O)c2ccc3c(c2)N(Cc2ccc(C)cc2)CCS3)CC1	7024	13	6	-1	-1	-34	-6
O=C(NCCCN1CCOCC1)C(=O)NCC1OCCN1S(=O)(=O)c1cc(F)ccc1F (stereo unspecified)	7190	1.0	-32	4	-3	3	6
COc1ccc(-c2cnc(N)nc2-c2ccc(OC)cc2O)cc1	4706	2.8	14	1	16	8	6
CC(=O)c1c(C)nc(-c2ccc(OCC(=O)Nc3cccc(C)c3C)cc2)n1O	4412	-1.4	-31	-10	-4	9	2
Cc1ccc(-c2cc(C(F)F)n3ncc(C(=O)N4CCCc5ccccc54)c3n2)cc1	3026	2.3	-5	nt	nt	2	-12
COC(=O)C1=C(c2ccc(-c3ccccc3)c(F)c2)CC2CCC1N2C(=O)NCCOc1ccccc1Cl (stereo unspecified)	nt	18	nt	3	9	8	nt
CC(O)CNC(=O)C1CCN(Cc2ccc(OCc3ccccc3)cc2)CC1 (stereo unspecified)	10304	-2.4	-26	1	7	-3	2
CCCC(C)NC(=O)COC(=O)c1cccc(NS(C)(=O)=O)c1 (stereo unspecified)	4058	0.4	-22	-7	-10	1	-1
CCOc1ccc(-n2c(C)c(C(=O)O)c3cc(OC)ccc32)cc1	3299	-2.5	-4	0	-1	4	6
COc1ccc(C(C#N)=Cc2ccc(NC(C)=O)cc2)cc1	3230	7.0	-67	17	8	-3	nt
COc1ccc(OCC(=O)Nc2c(C)ccc3nsnc23)cc1	?	5.0	-23	8	1	11	-3
O=C(NCCNS(=O)(=O)c1ccccc1)c1ccc([N+](=O)[O-])cc1	3332	2.0	2	-1	7	3	3
COc1ccc(CNC(=O)CCCn2c(=S)[nH]c3cc4c(cc3c2=O)OCO4)cc1	5672	1.3	1	4	10	4	5
Cc1nc2ccccn2c1-c1csc(NCc2ccco2)n1	3673	7.7	-10	0	6	-6	1
CCC(C)NC(=O)C1CCN(S(=O)(=O)c2cccs2)CC1 (stereo unspecified)	9450	4.0	-17	8	6	-2	15
Cc1ccc2c(c1)CCCN2C(=O)c1cccs1	20191*	6.8	2	16	7	-2	7
COc1cc(OC)c(OC)cc1CNCCNC(=O)c1nonc1N	24547*	-1.0	-27	3	-2	-4	-5
CCCNC(=O)Nc1ccc(NC(C)=O)cc1	2180	3.6	-11	6	2	1	-7
CCOC(=O)c1c(C)[nH]c(C(=O)Nc2ccc(C)c(Cl)c2)c1C	nt	-0.2	nt	1	7	4	5
COc1ccc(NC(=O)CSc2nc3sc(C)c(C)c3c(=O)n2Cc2ccco2)cc1	21853*	6.2	-8	8	11	-6	-1
COc1ccc(CCC(=O)Nc2ccc(N3CCOCC3)cc2)cc1	nt	-2.4	-22	nt	nt	4	3
Cc1ccc(C(=O)C(C)[n+]2cccc(C(N)=O)c2)cc1 (stereo unspecified)	3460	-0.2	-4	-4	3	3	6
COc1cc(/C=N/N2C(=O)CSC2=S)ccc1O	4453	nt	-21	nt	nt	nt	-7
O=C(c1nnc(Cc2ccc(Cl)cc2)o1)N1CCOCC1	5964	2.2	-66	-1	4	4	-7
COC(=O)c1ccc(NC(=O)CSc2nnc(Cc3cccn3C)n2-c2ccc(F)cc2)cc1	5207	4.3	-18	nt	nt	-6	3
Cn1c(Br)nc2c1c(=O)n(CC(O)COc1ccccc1)c(=O)n2C (stereo unspecified)	4341	0.4	-23	nt	nt	-1	5
N#CCc1nn2c3c(cnc2c1C#N)C(=O)CCC3	4138	5.8	-36	13	3	15	-5
CC1CN(C(=O)COC(=O)c2cccs2)CC(C)O1 (stereo unspecified)	2484	-5.6	5	1	3	7	5
CCOC(=O)c1c(NC(=O)C2CCCCC2)sc2c1CCN(C(C)C)C2	5168	-5.6	-12	2	1	10	10
CCOC(=O)C(NC(=O)c1ccccc1)(Nc1cccc(C)n1)C(F)(F)F (stereo unspecified)	3948	14	-6	3	-1	-1	-6
CN1CCCCCC1=NC1=C(C#N)CCCC1	2193	5.4	-12	nt	nt	-1	-3
CC(C)C(=O)NC(NC(=S)NC1CCS(=O)(=O)C1)C(Cl)(Cl)Cl (stereo unspecified)	8999	2.2	-5	-7	5	-2	-3
Cc1cc(C)nc(SCC(=O)c2ccc(F)cc2)n1	3962	6.0	-25	3	2	6	-5
CC(=O)C1=C(NC(=O)c2ccc(F)cc2)CC2C1C2(C)C (stereo unspecified)	3635	4.7	1	nt	nt	24	8
O=C(C1CC1)N1CCc2cc(Br)cc(S(=O)(=O)N3CCN(c4ccccn4)CC3)c21	4060	0.4	-14	3	13	3	-14
COC(=O)N/N=C/c1cc(OC)c(O)c([N+](=O)[O-])c1	2641	nt	-14	nt	nt	nt	-2
CCOC(=O)C1Nc2ccc(C)cc2C2C=CCC12 (stereo unspecified)	3976	nt	-19	nt	nt	nt	-3
O=C(CSc1nnc(C2CC2)n1C1CC1)c1ccc(F)c(F)c1	4107	1.5	-3	7	-8	-10	nt
CC(C)C(NC(=O)C(NC(=O)C1OC2OC(C)(C)OC2C2OC(C)(C)OC12)C(C)C)C(=O)O (stereo unspecified)	4457	-0.6	-21	4	10	14	11
Cc1cc(C)c(S(=O)(=O)Nc2cccc(-n3cnnn3)c2)c(C)c1	6411	0.5	-11	6	2	-3	-4
O=C(Cc1c[nH]c2ccccc12)NN=Cc1ccc(F)cc1	nt	2.8	nt	7	-2	-9	nt
O=C(C(c1ccccc1)c1ccccc1)N1CCN(CCN2C(=O)c3cccc4cccc(c34)C2=O)CC1	4775	-6.3	-15	17	10	-10	1
Cc1cccc(NN=Cc2ccccc2O)c1	nt	-1.1	nt	9	7	19	nt
CCCCCn1cnnc1SCC(=O)c1c(N)n(C2CC2)c(=O)[nH]c1=O	?	3.3	-35	2	-3	5	nt
O=[N+]([O-])c1ccc(Cl)c(S(=O)(=O)n2ccnc2)c1	3697	6.1	-12	5	6	1	4
New compounds follow
SMILES	Autofluor counter	RN4220 kill	PrP UTR inh	Mtb hypoxia rep	Mtb hypoxia rep growth	Sa ugtP lethal	BJeLR lethal
Clc1ccccc1CN1CCN(N=C/C=C/c2ccco2)CC1	nt	8.2	nt	7	6	4	nt
Cc1ccc(C(=O)Nc2cccc(C(=O)N/N=C/c3ccc(F)cc3)c2)cc1	3414	nt	-3	nt	nt	nt	-3
Cc1cccc2c(N=NC(=O)C(C)n3cnc4ccccc4c3=O)c(O)[nH]c12 (stereo unspecified)	4579	-1.1	-15	-9	2	0	0
C/C(=N\NC(=O)c1ccc(Cn2cc(Br)cn2)o1)c1cccc(NC(=O)C(C)(C)C)c1	2024	nt	-7	nt	nt	nt	-16
CC(=NNC(=O)c1ccc(-n2cnnn2)cc1)c1ccc(C)cc1	nt	-0.1	nt	-2	12	-3	nt
O=C(CSCc1ccc(Br)cc1)N1CCCC1	4415	nt	-1	nt	nt	nt	1
CCCNC(=O)COC(=O)CCC(=O)c1ccc(F)cc1	2353	2.2	-12	10	1	13	-1
O=S(=O)(c1ccccc1)c1nc(-c2ccccc2)oc1NCCCN1CCOCC1	5211	2.8	-18	7	5	3	-1
c1csc(CCNc2ncnc3sc4c(c23)CCC4)c1	6068	24	-8	0	0	-4	-6
COc1ccc(C2(O)CCN(CC(=O)Nc3nc(-c4ccccc4)cs3)CC2)cc1	4680	-1.8	-19	-3	5	6	5
O=C(c1cc(Cl)c(=O)n(Cc2ccccc2)c1)N1CCOCC1	9326	2.6	-26	4	9	0	3
CC(=O)c1sc(NC(=O)C2CSC3(C)CCC(=O)N23)nc1-c1ccccc1 (stereo unspecified)	6035	5.5	-12	6	5	8	4
Cc1ccc(/C=N/Nc2cccc(C(=O)O)c2)s1	2454	nt	40	nt	nt	nt	-5
Cc1ccc(NC(=O)CN2C(=O)NC3(CCCC3)C2=O)cc1S(=O)(=O)N1CCCCC1	3004	1.1	2	-2	-5	6	nt
CC(=O)Nc1cccc(C(=O)OCC(=O)Nc2nnc(-c3ccccc3)o2)c1	?	5.2	-12	13	0	8	3
Cc1cccc(NS(=O)(=O)c2cccc(C(=O)NCC(c3ccc(F)cc3)N3CCOCC3)c2)c1 (stereo unspecified)	4323	3.8	-9	3	3	-2	nt
COC(=O)c1sccc1-c1ccc(/C=N/OCc2c(Cl)cccc2Cl)o1	9834	nt	-22	nt	nt	nt	0
CCC1C(=O)N=C(SCC(=O)Nc2ccc(C)cc2)N(c2ccccc2)C1=O (stereo unspecified)	6224	2.7	-1	5	0	10	9
Cc1ncc(CN2CCC(CO)(CCc3ccccc3)CC2)s1	5187	1.7	2	1	6	0	3
CSCC[C@H](NC(=O)c1nn(C)c(=O)c2ccccc12)c1nc2ccccc2[nH]1	9435	3.6	-18	-1	-2	15	-3
O=C(CSc1nnc(NC2CC2)s1)c1ccc[nH]1	4177	3.2	-99	3	12	0	nt
COC(=O)c1cc(OC)c(OC)cc1NC(=O)CCc1ccc(C)o1	2907	-4.2	-6	nt	nt	-10	0
Cc1cccc(-n2c(SCCC(=O)O)nnc2-c2cccs2)c1C	2792	0.7	-9	nt	nt	0	3
CCCc1nnc(SCC(=O)N2CCCC(C)C2)n1CC1CCCO1 (stereo unspecified)	4018	1.5	-19	nt	nt	3	5
Cc1ccc(C)c(OCc2cc(C(=O)N3C[C@H]4C[C@@H](C3)c3cccc(=O)n3C4)no2)c1	5608	7.8	-7	4	-2	-5	-4
O=C(COC(=O)c1ccccc1NCCO)NCC1CCCCC1	8672	3.5	-32	31*	65*	2	nt

Complete entries, quoted from the list. Screens in order: Autofluor counter, RN4220 kill, PrP UTR inh, Mtb hypoxia rep, Mtb hypoxia rep growth, Sa ugtP lethal, BJeLR lethal
Profile of Cc1cccc(-n2c(SCCC(=O)O)nnc2-c2cccs2)c1C = 2792, 0.7, -9, nt, nt, 0, 3
Profile of O=C(COC(=O)c1ccccc1NCCO)NCC1CCCCC1 = 8672, 3.5, -32, 31*, 65*, 2, nt
Profile of Cc1ccc(C)c(OCc2cc(C(=O)N3C[C@H]4C[C@@H](C3)c3cccc(=O)n3C4)no2)c1 = 5608, 7.8, -7, 4, -2, -5, -4
Profile of O=C(CSc1nnc(NC2CC2)s1)c1ccc[nH]1 = 4177, 3.2, -99, 3, 12, 0, nt
Profile of CCCc1nnc(SCC(=O)N2CCCC(C)C2)n1CC1CCCO1 (stereo unspecified) = 4018, 1.5, -19, nt, nt, 3, 5
